StopGo reporter – lowers the luciferase signal of an FMDV 2A StopGo reporter. human cells with a luciferase reporter of 2A StopGo recoding; control for the full effect not named in the record. Potency, µM (highest dose often 57.9 µM), for the others: top-dose signal change, negative = less light. 410,000 tested, 1.2% active. AID 1159524; active = well fitted falling curve with a large enough effect; inconclusive = small, poorly fitted or top-dose-only effect; inactive = no such curve, though single readings can be large or run the other way; tested in HEK293T cells; further: on the % scale 0 is the no-effect control and ±100 the full control effect; nearly all actives have a fitted effect of over 45% in size; luciferase light after 4 h
Cruzain inh Det – inhibitors of Trypanosoma cruzi cruzain with detergent; purified cruzain, Z-FR-AMC fluorescence, 0.01% Triton; Potency, µM, without a hit: max response, negative = inhibition, most hits filed as inhibitors; 200,000 tested, 0.43% active;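 further: plate controls were neutral wells for no effect and buffer without enzyme for full effect; nearly all actives have a fitted effect of over 40% in size; top concentration of the series not given in the record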
Target sequence (P25779 123-467 limits assumed): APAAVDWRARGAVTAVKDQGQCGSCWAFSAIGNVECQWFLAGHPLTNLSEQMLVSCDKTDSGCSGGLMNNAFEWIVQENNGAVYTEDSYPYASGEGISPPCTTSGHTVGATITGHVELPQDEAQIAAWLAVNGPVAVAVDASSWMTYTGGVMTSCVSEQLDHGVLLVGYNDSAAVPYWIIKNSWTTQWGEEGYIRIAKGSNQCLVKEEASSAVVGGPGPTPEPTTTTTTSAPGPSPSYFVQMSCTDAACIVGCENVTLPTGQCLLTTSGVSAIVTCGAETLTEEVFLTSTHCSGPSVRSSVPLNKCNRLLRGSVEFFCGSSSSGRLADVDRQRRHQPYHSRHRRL
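Sodium acetate buffer (100 mM, pH 5.5) containing 5 mM DTT and 0.01% Triton X-100 hosted 1.5 nM cruzain and test compound for 15 min at room temperature. Cleavage of 2 uM Z-FR-AMC was then tracked by fluorescence.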
NS1 function inh – influenza NS1 inhibition; AID 2326; 270,000 tested, 0.4% active; S. cerevisiae slowed by influenza A NS1, growth recovery by OD600; Potency, µM (top dose mostly 46.1 µM), without a hit: at the top dose activity, positive = more growth; active means well fitted rising curve with a large enough effect; inconclusive means small, poorly fitted or top-dose-only effect; inactive means no such curve, though single readings can be large or run the other way; further: nearly all actives have a fitted effect of over 50% in size
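Recovery from NS1-induced slow growth read by OD600 in budding yeast switched to galactose assay medium (pH 6.0, -URA) at 1:100 dilution. Compound 23 nl per well; the matching strain lacking NS1 serves as control.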
RE007 growth inh – less growth of the S. pombe RE007 Vpr strain; S. pombe RE007 Vpr strain, BacTiter-Glo ATP luminescence, 24 h; control for the full effect not named in the record; Potency, µM (highest dose often 92.2 µM), for the others: at the top dose activity change, negative = less growth; 360,000 tested, 0.21% active; AID 651644; active = well fitted falling curve with a large enough effect; inconclusive = small, poorly fitted or top-dose-only effect; inactive = no such curve, though single readings can be large or run the other way;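 further: on the % scale 0 is the no-effect control and ±100 the full control effect; nearly all actives have a fitted effect of over 50% in size; the assay follows cell death caused by Vpr and the record does not say whether a fall means rescue or toxicity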
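Fission yeast strain RE007, carrying one chromosomally integrated HIV-1 vpr copy, was seeded at OD 0.01 in PMG+AL medium with 23 nL pinned compound. After 24 h at 30 °C and 99% humidity, viability was read by BacTiter-Glo luminescence.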
Cruzain inh noDet – inhibitors of Trypanosoma cruzi cruzain without detergent | P25779 | purified cruzain, Z-FR-AMC fluorescence, no detergent | Potency, µM, without a hit: max response, negative = inhibition, actives largely listed as inhibitors | 200,000 tested, 2.3% active | AID 1476;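 further: plate controls were enzyme without inhibitor for no effect and buffer without enzyme for full effect; nearly all actives have a fitted effect of over 40% in size; top concentration of the series not given in the record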
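Detergent-free condition (0.00005% Triton X-100) in acetate buffer pH 5.5 with DTT. 1.5 nM enzyme and compound were pre-mixed 15 min, then 2 uM Z-FR-AMC substrate added; reaction progress from fluorescence change between first and third reads (60 s).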
SARS PLP yeast – blocks SARS-CoV papain-like protease in a yeast assay. Potency, µM (highest dose often 32.9 µM), for the others: at the highest dose activity, positive = growth rescue. 330,000 tested, 0.19% active. S. cerevisiae expressing SARS-CoV PLpro, growth rescue; control for the full effect not named in the record; active means well fitted rising curve with a large enough effect; inconclusive means small, poorly fitted or top-dose-only effect; inactive means no such curve, though single readings can be large or run the other way; further: 0% is about no effect; nearly all actives have a fitted effect of over 55% in size; growth read by luminescence after 48 h
LASV entry inh – Lassa virus entry inhibition; Lassa virus pseudotype entry inhibition, cell reporter; control for the full effect not named in the record; Potency, µM (series often up to 37.9 µM), for the others: at the top dose activity change, negative = inhibition, hits mostly inhibitors; 300,000 tested, 1.2% active; AID 540256; active means well fitted inhibition curve with a large enough effect; inconclusive means small, poorly fitted or top-dose-only effect, or effect the other way; inactive means flat fitted curve, though single readings scatter; tested in HEK293 cells; further: on the % scale 0 is the no-effect control and ±100 the full control effect; nearly all actives have a fitted effect of over 50% in size; luciferase read-out
Marburg entry inh – Marburg virus entry inhibition; Marburg virus pseudotyped entry inhibition, cell reporter; control for the full effect not named in the record; about a third of the inactives were read at about 46 µM; Potency, µM (series often up to 37.8 µM), for the others: top-dose activity change, negative = inhibition, usual class: inhibitors; 300,000 tested, 1.8% active; AID 540276; active = well fitted inhibition curve with a large enough effect; inconclusive = small, poorly fitted or top-dose-only effect, or effect the other way; inactive = flat fitted curve, though single readings scatter; tested in HEK293 cells; about a fifth of its hits are not listed in these tables; further: on the % scale 0 is the no-effect control and ±100 the full control effect; luciferase read-out
Active calls of the source: *; u = inconclusive; x = not tested or not shown; [ ] = remark or other dose. Unless noted, the call rests on the fitted dose curve; in most records, active means well fitted curve in the direction sought with a large enough effect; inconclusive means small, poorly fitted or top-dose-only effect, or another doubt; inactive means no such curve, though single readings can be large; an effect the other way counts as inactive or inconclusive. Potency means the concentration at half of the fitted maximal effect.

Below each compound: StopGo reporter	Cruzain inh Det	NS1 function inh	RE007 growth inh	Cruzain inh noDet	SARS PLP yeast	LASV entry inh	Marburg entry inh
(1) CC1(C)CC(=O)C(CC2=C(O)CC(C)(C)CC2=O)C(=O)C1
 : -9%	-0.2%	u	13%	u	1%	11%	9%
(2) CC1=NN(c2ccccc2)C(=O)/C1=C/c1cc2cc(C)ccc2nc1N1CCCCC1
 : x	-0.7%	-6%	x	-17%	-20%	x	x
(3) COc1ccc(C)cc1S(=O)(=O)N(CC(=O)NCc1ccco1)c1ccc(C)cc1
 : 22%	x	8%	16%	x	1%	u	-13%[46.1 µM]
(4) CCN(CC)C(=O)COc1ccc(/C=C(\C#N)S(=O)(=O)c2ccccc2)cc1OC
 : -4%	x	3%	16%	x	0%	x	x
(5) O=C(O)CNC(=O)c1ccc2c(c1)OCCO2
 : -6%	9.6%	2%	1%	0%	-4%	9%	0%
(6) O=C(NCC1CCCO1)c1ccc2ccccc2n1 (stereo not given)
 : 38%[activator]	1.4%	-7%	-13%	-4%	-1%	u	u
(7) O=C(CN(Cc1ccco1)C(=O)Cn1nnc(-c2cccs2)n1)NCC1CCCO1 (stereo not given)
 : 2%	x	1%	-15%	x	-1%	x	x
(8) CCN1CCN(CC(=O)c2c(C)n(C)c3ccc(OC)cc23)CC1
 : -18%	3.1%	2%	8%	9%	8%	u	11%
(9) O=c1cc(COc2ccc(Cl)cc2Cl)nc2scc(-c3ccccc3)n12
 : -13%	-6.0%	x	x	-14%	x	5%[46.1 µM]	-6%[46.1 µM]
(10) CCOCCCN(C(=O)c1snc(C(N)=O)c1N)C(C(=O)NC1CCCC1)c1ccc(O)cc1 (stereo not given)
 : -3%	x	1%	-7%	x	0%	-6%[46.1 µM]	7%[46.1 µM]
(11) COc1cccc(/C(O)=C2/C(=O)C(=O)N(CCCN(C)C)C2c2cccc(Cl)c2)c1 (stereo not given)
 : x	1.6%	-10%	x	-3%	-6%	x	x
(12) Cc1ccccc1-n1c(=O)cc(N2CCc3ccccc32)[nH]c1=O
 : 0%	-2.1%	u	15%	-7%	-5%	x	x
(13) Cc1ccccc1OCC(=O)NNC(=O)c1ccc(-c2ccccc2)cc1
 : 12%	2.9%	-7%	-10%	u	-7%	1%	-9%
(14) Cc1ccc2nc(-c3ccc(NC(=O)C(F)(F)F)cc3)sc2c1
 : -3%	-2.3%	x	x	-11%	x	30%[46.1 µM]	u
(15) O=C(CCn1c(=O)c2cccn2c2ccc(F)cc21)NCCc1ccccc1Cl
 : -25%	-0.2%	x	x	5%	x	-7%[46.1 µM]	x
(16) CCOc1ccc(NC(=O)C2CCCN(c3nc(C)cc(C)n3)C2)cc1 (stereo not given)
 : -5%	x	1%	-22%	x	0%	-5%[46.1 µM]	u
(17) COc1ccc(S(=O)(=O)NCc2ccncc2)cc1NC(=O)c1ccc(Cl)cc1
 : -6%	x	x	11%	x	-1%	u	u
(18) O=C(CNS(=O)(=O)c1ccc(Cl)cc1)NNC(=O)c1cccnc1
 : 9%	x	x	2%	x	-2%	-3%	6%[46.1 µM]
(19) Cc1ccc(/C=N/NC(=O)c2cc(-c3cccnc3)nc3ccccc23)cc1
 : -12%	x	x	-6%	x	3%	u	u
(20) Cc1nnc(SCC(=O)N(CC(C)C)c2c(N)n(Cc3ccccc3)c(=O)[nH]c2=O)n1N
 : -15%	x	x	6%	x	x	0%	-19%
(21) COc1cc(NC(=O)c2cc(-c3cccnc3)nc3ccc(C)cc23)c(OC)cc1Cl
 : x	-3.6%	10%	x	26%	-4%	x	x
(22) CCc1ccccc1Nc1ccc(C(=O)O)cc1N
 : 23%	-2.7%	3%	-1%	-13%	u	9%	u
(23) CCNC(=S)NNC(=O)c1ccc(=O)n(Cc2ccccc2)c1
 : -13%	x	-2%	-2%	x	1%	-10%	2%[46.1 µM]
(24) COc1ccc(CCNC(=O)c2c(O)nc3ccccn3c2=O)cc1OC
 : -8%	-3.9%	x	x	1%	x	x	-2%[46.1 µM]
(25) Cn1c(=O)c2c(nc(NCc3ccccc3)n2C)n(C)c1=O
 : -6%	-0.2%	-4%	14%	-9%	-16%	0%	14%
(26) O=C(Nc1ccc(Cl)cc1)c1ccc(-n2cnnc2)cc1
 : -12%	-0.8%	x	x	5%	x	10%[46.1 µM]	x
(27) COc1ccc(CNC(=O)CCCn2c(SCC#N)nc3cc4c(cc3c2=O)OCO4)cc1
 : 6%	9.0%	24%	3%	4%	0%	-8%	u
(28) CN(C)C(=O)COC(=O)[C@H](Cc1ccccc1)NC(=O)c1ccco1
 : -23%	2.1%	22%	5%	0%	4%	u	0%[46.1 µM]
(29) COc1ccc(-c2cc(C(F)(F)F)n3ncc(-c4ccccc4)c3n2)cc1
 : -6%	-0.4%	x	x	17%	x	0%[46.1 µM]	1%[46.1 µM]
(30) O=C(CNC(=O)c1ccccc1)NCC(=O)OCC(=O)c1ccc(F)cc1
 : -23%	-5.3%	6%	-8%	-8%	8%	3%	2%

Next part:
Below each compound: StopGo reporter	Cruzain inh Det	NS1 function inh	RE007 growth inh	Cruzain inh noDet	SARS PLP yeast	LASV entry inh	Marburg entry inh
(31) C/C(=N\N=C(N)N)c1cc(Cl)ccc1Cl
 : -17%	x	5%	-5%	x	1%	x	x
(32) COc1cccc(-c2cc(C(=O)NCC3CCCO3)on2)c1 (stereo not given)
 : 19%	x	-16%	-11%	x	21%	x	x
(33) COC(=O)c1ccc(C(NC(=O)c2cccnc2)NC(=O)c2cccnc2)cc1
 : -5%	x	3%	14%	x	1%	-2%[46.1 µM]	12%[46.1 µM]
(34) O=C(Cn1cc(C(=O)c2ccco2)c2ccccc21)NCc1ccco1
 : 50%[activator]	-3.9%	-4%	-8%	1%	12%	5%	22%
(35) Cc1ccc(C)c(NC(=O)CN(C)C(=O)c2ccc(-c3ccc(Cl)cc3)o2)c1
 : -27%	x	x	16%	x	-2%	u	-13%[46.1 µM]
(36) CCOC(=O)N1CCC(n2c(SCC(=O)N3CCC(C)CC3)nc3ccccc3c2=O)CC1
 : u	-3.8%	-1%	7%	u	5%	u	-65%
(37) CCOc1ccc(S(=O)(=O)NCc2ccccc2)cc1C(N)=O
 : 12%	x	1%	5%	x	-1%	-15%[46.1 µM]	u
(38) CCc1nnc(NC(=O)CSc2nnc(C(C)NC(=O)c3ccccc3F)n2C)s1 (stereo not given)
 : -6%	x	6%	0%	x	0%	u	2%[46.1 µM]
(39) Cc1ccc(C(=O)C(O)C(c2ccc(C)cc2)N2CCCCC2)cc1 (stereo not given)
 : 40%[activator]	x	2%	-12%	x	25%	-2%	u
(40) O=C(Nc1ccc(S(=O)(=O)N2CCCC2)cc1)c1ccc(Cl)nc1
 : 0%	x	x	-11%	x	5%	u	-2%[46.1 µM]
(41) CC(=O)c1ccc(NC(=O)C2CC2c2ccccc2)cc1 (stereo not given)
 : 14%	x	x	12%	x	x	1%	5%
(42) CC1CCN(C(=O)C2CCN(S(=O)(=O)c3cccc4nonc34)CC2)CC1
 : 0%	-1.1%	-4%	9%	-8%	3%	-29%	-1%
(43) CCC(=O)Nc1c(OC(=O)CC)ccc2c(C)cc(=O)oc12
 : -8%	-0.7%	-2%	-1%	-5%	14%	x	x
(44) C/C(=N\NC(=O)Cc1c(C)[nH][nH]c1=O)c1ccc2ccccc2c1
 : x	0.8%	-13%	x	4%	-3%	-10%	8%
(45) Cc1cccc(OCC(=O)Nc2cccc(C(=O)OCc3cc(=O)n4c(C)csc4n3)c2)c1
 : -18%	-1.9%	x	x	-5%	x	-25%[46.1 µM]	x
(46) CCOC(=O)C1=C(C)NC(=O)C(C#N)C1c1ccco1 (stereo not given)
 : 8%	1.4%	u	12%	-4%	9%	-11%	-3%
(47) Cc1ccc(-c2nn3c(=O)cc(CN4CCN(S(=O)(=O)c5ccc(Cl)cc5)CC4)nc3s2)cc1
 : 0%	1.2%	x	x	-6%	x	0%[46.1 µM]	x
(48) CCOc1ccc(NC(=O)C2CC(=O)N3CCCN=C3S2)cc1 (stereo not given)
 : -13%	-4.5%	-4%	u	-17%	-27%	19%	17%[46.1 µM]
(49) FCCCOc1ccc(-c2nccc(-c3ccc(Br)cc3)n2)cc1
 : 4%	-4.6%	-8%	-1%	-2%	-1%	-6%	7%
(50) COCCN(C(=O)c1ccc(-c2ccc([N+](=O)[O-])cc2)o1)c1c(N)n(CC(C)C)c(=O)[nH]c1=O
 : -19%	x	x	1%	x	-5%	0%	15%
(51) O=C(CSc1nnc(-c2cnccn2)n1Cc1ccco1)c1ccccc1
 : 0%	-2.4%	-8%	0%[3.69 µM]	-4%	0%	0%	10%
(52) CC(C)c1ccc(C(O)P(=O)(OCc2ccccc2)c2ccc(N(C)C)cc2)cc1 (stereo not given)
 : 12%	x	5%	-24%	x	0%	x	x
(53) COC(=O)c1c(NC(=O)COC(=O)c2ccc(Cl)nc2)sc(C)c1C
 : -20%	x	x	0%	x	-3%	-2%	-2%
(54) CN(C)c1cccc(N(C)C)c1CNC(=O)NC(=O)c1c(F)cccc1F
 : 37%[activator]	x	2%	-4%	x	-3%	x	x
(55) CC(=O)c1cccc(NC(=O)C(OC(=O)c2cccs2)c2ccccc2)c1 (stereo not given)
 : 6%	-6.4%	u	14%	32µM*	26%	30%	u
(56) O=[N+]([O-])C1=C(Nc2cccc3ccccc23)CS(=O)(=O)C1
 : -5%	-5.9%	20%	-11%	-7%	-12%	-10%	2%
(57) CNc1c(NS(=O)(=O)c2ccc(F)cc2)c(=O)oc2ccccc12
 : 41%	x	5%	-3%	x	1%	-2%[46.1 µM]	-1%[46.1 µM]
(58) CCOC(=O)C(OC(=O)c1sc(=S)n(C)c1C)C(C)=O (stereo not given)
 : -4%	-8.9%	9%	-7%	-7%	0%	8%	15%
(59) Cc1cccc(CNC(=O)Cc2csc3ccccc23)c1
 : 47%[activator]	-0.5%	x	x	-28%	x	3%[46.1 µM]	u
